Screening data deposited in PubChem by National Center for Advancing Translational Sciences (NCATS).
gsp ag – qHTS for Agonist of gsp, the Etiologic Mutation Responsible for Fibrous Dysplasia/McCune-Albright Syndrome: qHTS; Potency, µM (series often up to 76.9 µM), for the others: at the highest dose activation (cAMP increase), usual class: activators; gsp mutant cells, cAMP HTRF, 30 min; control for the full effect not named in the record; 0.13% of 340,000 active; AID 624287, 2012; active = well fitted activation curve with a large enough effect; inconclusive = small, poorly fitted or top-dose-only effect, or another doubt; inactive = no such curve, though single readings can be large or run the other way; cell line not stated here;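 also: phosphodiesterase inhibitor Ro 20-1724 added with compounds to block cAMP breakdown; potency is read from the fitted curve at half-maximal effect; nearly all actives have a fitted effect of over 60% in size; about a fifth of the inactives were tested at one dose only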
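Cells stably selected in G418 were plated at 2000/well, grown 16-24 hr, then given compounds in DMSO with the PDE inhibitor […] (300 uM solution added) for 30 min at 37C; cAMP was read by HTRF.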
Menin MLL FP FL – qHTS Assay for Inhibitors Targeting the Menin-MLL Interaction in MLL Related Leukemias: Competition With Fluorescein Labeled MLL-derived Peptide; Fluorescence polarization, fluorescein-MLL peptide displacement from menin; AID 1766, 2009; FP activity change, % at 61.4 µM; 290,000 tested, under 10 active; inconclusive = falling polarisation curve, or a change in total fluorescence; inactive = total fluorescence flat and polarisation flat or rising; no compound was filed as active; the % refers to the polarisation; negative = inhibition;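 also: % of control where 0% means no effect; inhibitors lower the polarisation; unlabelled MLL peptide was the positive control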
TRPML1 ag – qHTS for Agonists of the Human Mucolipin Transient Receptor Potential 1 (TRPML1) | Mucolipin-1 (Homo sapiens), Q9GZU1 | TRPML1-expressing cells, Ca2+ dye fluorescence, FDSS; host cell line not named in the record; reference of the full effect not given here | activation, % (concentration not given with the values) | 0.12% of 410,000 active | AID 624414, 2012; in the data active = activation above about 50%; inconclusive = about 30% to 50%; inactive = below about 30%; also: 0% is about no effect; the text of the record puts the active cut at 80%
Target sequence (Q9GZU1 whole entry, looked up): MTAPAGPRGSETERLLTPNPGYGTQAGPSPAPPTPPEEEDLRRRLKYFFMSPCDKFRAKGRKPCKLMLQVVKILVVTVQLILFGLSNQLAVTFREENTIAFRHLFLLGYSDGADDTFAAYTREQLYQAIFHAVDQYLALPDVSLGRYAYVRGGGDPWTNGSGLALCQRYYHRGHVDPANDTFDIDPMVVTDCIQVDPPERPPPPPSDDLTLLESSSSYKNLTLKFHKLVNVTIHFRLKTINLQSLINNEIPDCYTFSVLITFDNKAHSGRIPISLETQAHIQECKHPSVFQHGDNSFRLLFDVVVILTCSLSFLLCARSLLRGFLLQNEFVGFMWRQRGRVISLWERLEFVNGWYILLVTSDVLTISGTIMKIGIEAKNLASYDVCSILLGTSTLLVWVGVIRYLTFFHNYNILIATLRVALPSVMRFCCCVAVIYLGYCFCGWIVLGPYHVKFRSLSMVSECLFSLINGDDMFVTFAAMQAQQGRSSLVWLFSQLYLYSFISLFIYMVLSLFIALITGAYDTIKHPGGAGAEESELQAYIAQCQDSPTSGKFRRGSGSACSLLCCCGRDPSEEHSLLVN
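Tet-induced TRPML1-DL cells, 1,500 per well, cultured overnight, were loaded with a no-wash Ca2+ dye for 45–90 min. Calcium fluorescence was recorded on the FDSS for 110 s after compound addition, before the EC80 agonist (4 uM 54-4) was added.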
TRPML1 blocker – qHTS for Inhibitors of the Human Mucolipin Transient Receptor Potential 1 (TRPML1) | TRPML1-inducible cells, Ca2+ dye fluorescence, FDSS; hits give low values; inhibition of EC80 agonist-evoked calcium signal | activity change, negative = inhibition, % (concentration not given with the values) | 0.02% of 390,000 active | AID 624415, 2012; in the data active means activity change below about -50%; inconclusive means about -30% to -50%; inactive means above about -30%;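 also: stimulus is agonist 54-4 at its EC80 concentration; % is scaled to controls: 0 for no effect and ±100 for the full control effect; compound concentration not given in the record; the text of the record puts the active cut at -80%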
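Tet-induced TRPML1-DL cells loaded with Ca8 no-wash calcium dye were read kinetically on FDSS. Compound addition was followed by EC80 agonist 54-4 (4 uM final); inhibition was read over 110 s.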
gsp antagonist – qHTS for Antagonists of gsp, the Etiologic Mutation Responsible for Fibrous Dysplasia/McCune-Albright Syndrome: qHTS. gsp-mutant cells, cAMP HTRF, 30 min; control for the full effect not named in the record. Potency, µM (highest dose often 76.9 µM), for inactives: top-dose activity change, negative = inhibition, actives largely listed as inhibitors. 0.4% of 340,000 active. AID 624288, 2012; active = falling curve of any shape with a large fitted effect; inconclusive = falling curve, mostly with a smaller effect; inactive = flat or rising curve; cell line not stated here;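 also: intracellular cAMP measured with PDE inhibitor Ro 20-1724 present during compound exposure; potency is read from the fitted curve at half-maximal effect; % is scaled to controls: 0 for no effect and ±100 for the full control effect; nearly all actives have a fitted effect of over 65% in size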
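Cells, 2000/well, grown 16–24 h in DMEM 10% FBS with 0.5 mg/ml G418, then compounds plus […] (300 uM addition stock), 30 min at 37C. cAMP read by HTRF (cAMP-d2 and anti-cAMP antibody-K in lysis buffer) after 30 min RT.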
ClpP mod – qHTS Assay for Activators of ClpP | 1.9% of 340,000 active | Potency, µM (titrated, usually from 57.5 µM), inactives show at the top dose activity change, negative = active | purified B. subtilis ClpP, FRET peptide cleavage, 20 min | ATP-dependent Clp protease proteolytic subunit (Bacillus subtilis (strain 168)), P80244; active = well fitted falling curve with a large enough effect; inconclusive = small, poorly fitted or top-dose-only effect; inactive = no such curve, though single readings can be large or run the other way; also: potency is read from the fitted curve at half-maximal effect; the source files actives as falling curves though it sought activators and does not explain the sign; nearly all actives have a fitted effect of over 65% in size; many hits overshoot -100%
Target sequence (P80244 whole entry, looked up): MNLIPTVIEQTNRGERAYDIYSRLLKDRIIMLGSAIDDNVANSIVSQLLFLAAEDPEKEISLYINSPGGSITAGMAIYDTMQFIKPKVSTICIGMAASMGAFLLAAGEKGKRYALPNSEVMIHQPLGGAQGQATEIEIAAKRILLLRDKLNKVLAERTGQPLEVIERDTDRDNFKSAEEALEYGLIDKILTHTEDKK
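FRET quenching reversal measured ClpP activation: 10 microg/mL B. subtilis ClpP at pH 8 with the FRET-FV decapeptide, read at 430 nm after 320 nm excitation. The 20-min minus 0-min signal was scaled between DMSO/no-enzyme wells and ADEP (5.8 microM final).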
Active calls of the source: *; ? = inconclusive; / = no result given; [ ] = remark or other dose.

no.	SMILES	gsp ag	Menin MLL FP FL	TRPML1 ag	TRPML1 blocker	gsp antagonist	ClpP mod
1	CC(C)(C)Nc1nc(SCc2ccccc2)nc(N2CCOCC2)n1	-3%	2.4	6.0	0	4%	1.8%
2	Cc1cc(NC(=O)c2cccc(S(=O)(=O)N3CCCCCC3)c2)no1	-54%[inhibitor]	2.6	0.8	-8	1%	-1.2%
3	CC(C)N=C(NS(=O)(=O)NC(=O)c1ccccc1)c1ccccc1	2%	0.9	-0.6	5	10%	0.6%
4	CSCCC(NS(=O)(=O)c1ccccc1F)C(=O)NCCCn1nc(C)cc1C (configuration not stated)	18%	/	-1.2	-1	10%	-0.5%
5	COc1cc(CCC(=O)Nc2ccc(Cl)c(C(F)(F)F)c2)cc(OC)c1OC	?	7.3	2.9	12	-28%	1.5%
6	Cc1ccc2nc(NC(=O)CSc3nccn3-c3ccc(Cl)cc3)sc2c1	/	/	2.6	38	/	-3.8%
7	Cc1cccc(CNC(=O)c2ccc3c(c2)N(C)C(=O)C2CCCCN32)c1 (configuration not stated)	/	/	0.8	0	/	-26%
8	COc1ccc(CCNC2=NCCS2)cc1OC	-5%[15.4 µM]	2.9	0.5	11	12%	-1.4%
9	O=C(Cn1nnc(-c2ccc(NC(=O)c3ccccc3F)cc2)n1)NCc1ccc(F)cc1	0%	-0.8	-0.6	16	13%	4.0%
10	Cc1cc(=O)oc(C)c1C(=O)NCC1CCCO1 (configuration not stated)	6%	0.6	-0.6	-4	0%	-0.9%
11	CCN(C(=O)CSc1n[nH]c(-c2cc(Cl)ccc2OC)n1)C1CCS(=O)(=O)C1 (configuration not stated)	7%	/	-1.2	6	-28%	-3.1%
12	CCn1c(SCc2cccnc2)nc2c1c(=O)n(C)c(=O)n2C	35%	2.9	3.0	26	7%	0.4%

Arranged by length of the SMILES (descending): part of the list above
no.	SMILES	gsp ag	Menin MLL FP FL	TRPML1 ag	TRPML1 blocker	gsp antagonist	ClpP mod
2	Cc1cc(NC(=O)c2cccc(S(=O)(=O)N3CCCCCC3)c2)no1	-54%[inhibitor]	2.6	0.8	-8	1%	-1.2%
10	Cc1cc(=O)oc(C)c1C(=O)NCC1CCCO1 (configuration not stated)	6%	0.6	-0.6	-4	0%	-0.9%
8	COc1ccc(CCNC2=NCCS2)cc1OC	-5%[15.4 µM]	2.9	0.5	11	12%	-1.4%

New compounds follow.
no.	SMILES	gsp ag	Menin MLL FP FL	TRPML1 ag	TRPML1 blocker	gsp antagonist	ClpP mod
13	NNC(=O)c1sc2cc(C(F)(F)F)cnc2c1-c1ccccn1	-2%[15.4 µM]	2.7	0.1	32	9%	/
14	O=C(Cn1cc(COc2ccc3ccccc3c2)nn1)NS(=O)(=O)c1cccc(OC(F)F)c1	/	/	0.8	10	/	-2.0%
15	O=C(COC(=O)c1ccc[nH]c1=O)NC1CCCCCCC1	14%[15.4 µM]	2.1	0.4	5	0%	/
16	CCOC(=O)c1sc(SCC(=O)Nc2ccc(N(C)C)cc2)nc1N	-1%	2.8	0.8	-17	28µM*	1.3%
17	O=C(NCCc1c[nH]c2ccccc12)c1ccc2[nH]c(=O)c(=O)[nH]c2c1	20%[15.4 µM]	-3.3	-0.5	-14	6%	0.3%
18	CCc1ccc(/C(C)=N/NC(=O)C(O)c2ccccc2)s1 (configuration not stated)	10%[15.4 µM]	/	0.3	1	2%	1.6%
19	COC(=O)N/N=C\c1cc(Br)ccc1OCc1ccccc1	22%[15.4 µM]	-0.5	2.9	25	-10%	1.7%
20	COc1ccc2cc(C3C(C#N)=C(N)OC(C)=C3C(C)=O)c(Cl)nc2c1 (configuration not stated)	-14%[15.4 µM]	3.9	0.7	4	/	/
21	Cc1cc(OC(=O)c2cc([N+](=O)[O-])ccc2Cl)c([N+](=O)[O-])c(=O)[nH]1	-1%	-0.8	-0.6	-1	8%	-1.2%
22	CC12CCC(=O)N1C(C(=O)Nc1nnc(SCc3ccc(F)cc3)s1)CS2 (configuration not stated)	13%	-4.9	-0.2	-1	-19%	-1.4%
23	Cc1ccc2oc3c(c(=O)c2c1)C(c1cccc(O)c1)N(CCCN1CCOCC1)C3=O (configuration not stated)	/	/	-1.0	17	/	-1.4%
24	COc1ccc(S(=O)(=O)Cc2ccc(C(=O)NCCCN(C)c3ccccc3)o2)cc1	-3%	5.0	0.3	0	-20%	1.7%
25	CN(C)c1nc(NCc2ccccc2)nc(N/N=C/c2ccc(Cl)cc2Cl)n1	-13%	-0.1	0.0	20	-18%	-2.1%
26	Cc1c(C(=O)O)oc2ccc3c(c12)C(O)CC(C)(C)O3 (configuration not stated)	7%	-1.6	-0.6	-2	14%	3.8%
27	COc1ccc(/C(N)=N/OC(=O)c2cccc([N+](=O)[O-])c2C)cc1OC	1%	2.5	-0.1	-15	11%	-4.4%
28	COc1ccc(-n2c(=S)[nH]c3cc(C(=O)NCCCN4CCOCC4)ccc3c2=O)c(OC)c1	13%[15.4 µM]	-0.8	-0.3	15	13%	-6.2%
29	CCOC(=O)c1ccc(-n2[nH]c(-c3ccccc3)cc2=O)cc1	2%	0.6	-0.1	-4	?	-3.6%
30	CCC/C=C/c1ccc(CN2C(C(C)C)C(=O)N(Cc3cn(CC4CCCCC4)nn3)CCS2(=O)=O)cc1 (configuration not stated)	0%	/	1.1	-7	/	-5.7%
31	Cc1ccc(CN2CC34C=CC(O3)C(C(=O)NCc3ccco3)C4C2=O)cc1 (configuration not stated)	6%	4.7	-0.5	9	8%	-0.8%
32	CC(=O)c1ccc(N2CCN(C(=S)Nc3ccccc3C(F)(F)F)CC2)cc1	10%[15.4 µM]	0.7	0.1	-10	/	/
33	O=C(COC(=O)C1CC2C=CC1C2)Nc1ccccc1[N+](=O)[O-] (configuration not stated)	0%	/	0.0	24	8%	1.6%
34	COc1ccc(CCC(=O)Nc2nc3ccccc3[nH]2)cc1	1%	1.2	-0.5	6	21%	-1.2%
35	COc1ccc(-c2nn(-c3ccccc3)cc2C(=O)NCC2CCCO2)cc1 (configuration not stated)	1%	/	0.1	17	-5%	-11%
36	CCOC(=O)/C(=C/C1=CC(=C/N(C)C)/C(=O)O1)C(C)=O	-5%[15.4 µM]	?	3.5	-3	-10%	/
37	CCC(C)NC(=O)c1ccc(CSCc2ccccc2Cl)o1 (configuration not stated)	?	5.8	3.9	45	-14%	/
38	CCN(CC(=O)Nc1c(F)cccc1F)C(=O)C1(c2ccccc2)CC1	13%[15.4 µM]	/	-0.6	9	-3%	-1.7%
39	Oc1ccccc1C=NNc1nc2ccccc2s1	?	/	-0.6	31	-14%	/
40	CC1CN(S(=O)(=O)c2cccc(C(=O)OCC(=O)NCc3ccccc3)c2)CC(C)O1 (configuration not stated)	-9%	/	-0.7	10	-7%	-2.3%
41	O=C(CNC(=O)c1ccccc1)N/N=C/c1ccc([N+](=O)[O-])s1	-11%[15.4 µM]	7.4	-0.9	-12	13%	/
42	O=C1C2C(C(=O)N1c1ccccc1)N1CCCN1C2c1ccccc1 (configuration not stated)	-8%[15.4 µM]	0.0	-0.2	-14	15%	/
43	Cc1cc(=O)oc2cc(OC(=O)C3CCN(C(=O)c4ccc(F)cc4)CC3)ccc12	17%	/	1.3	-5	3%	101%
44	Cc1ccc(-c2csc(N3CCN(c4cc5c(cc4Cl)nc(-c4ccncc4)n5CCOCCO)CC3)n2)cc1	/	-0.2	-0.2	28	-3%	-12%
45	COc1ccc(C(=O)N2CCc3ccccc3C2)cc1S(=O)(=O)N1CCCC1	-40%[inhibitor]	/	-0.3	-12	/	-6.1%
46	Cc1cc(N2CCC(C)CC2)nc2ccc(NC(=O)CCC(=O)N3CCN(c4cccc(C(F)(F)F)c4)CC3)cc12	/	/	0.0	11	/	3.6%
47	O=C(NN=C1CCCCCCC1)c1ccc2ccccc2n1	16%	5.1	0.5	-2	5%	/
48	COc1cc(Cl)c(C)cc1NCC(=O)Nc1cccc(S(=O)(=O)N2CCCC2)c1	10%	/	1.0	47	-6%	-1.5%
49	NC(=O)c1ccsc1NC(=O)CSc1nnc(C2CC2)n1Cc1ccccc1	-31%[inhibitor]	-1.7	2.7	7	-5%	-1.3%
50	O=C(CNS(=O)(=O)c1ccc(Br)s1)NCCc1ccc(Cl)cc1	0%	-14	0.6	-3	7%	/
51	CCCCNC(=O)N(O)C1N(/N=C/c2ccccc2F)C(=S)SC1(C)C (configuration not stated)	-4%[15.4 µM]	-0.5	-1.7	-1	7%	-0.5%
52	CSCCC(NS(=O)(=O)c1ccc2c(c1)oc(=O)n2C)C(=O)NCc1ccc(F)cc1 (configuration not stated)	/	/	-0.4	35	/	1.0%
53	CCCS(=O)(=O)c1c(S(=O)(=O)CCC)c2ccc(C(N)=O)cn2c1C(=O)c1ccccc1	-10%	1.4	0.5	19	-17%	0.7%
54	COc1cccc(C2=NOC(C(=O)Nc3cccnc3Cl)C2)c1OC (configuration not stated)	-20%	-1.1	-0.1	2	3%	/
55	O=C(Nc1ccccc1C(=O)OCc1cc(=O)n2c3c(sc2n1)CCCC3)c1ccc(F)cc1	/	/	1.4	13	/	-5.6%
56	O=c1[nH]c(C2CCCN(S(=O)(=O)c3cccc(Cl)c3)C2)nc2c1nnn2Cc1ccc2c(c1)OCCO2 (configuration not stated)	4%	/	0.2	1	4%	-1.2%
57	COc1ccc(-n2c(SCC(=O)Nc3ccc4c(c3)OCO4)nc3c([nH]c4ccccc43)c2=O)cc1	/	/	0.2	-2	/	?
58	Cn1cc(P(=S)(N2CCOCC2)N2CCOCC2)cc1P(=O)(N1CCOCC1)N1CCOCC1	-3%[15.4 µM]	-2.0	-0.5	-16	/	/
59	Nc1[nH]c(=O)ncc1F	/	4.6	-0.6	7	1%	-0.2%
60	COc1ccc(-n2c(=O)c3c4c(sc3n3cnnc23)CC(C)CC4)cc1 (configuration not stated)	19%	/	0.9	-21	13%	-3.9%
61	O=C(NC(=S)Nc1nc2ccc(F)cc2s1)c1ccco1	-31%	-2.2	-0.2	1	-21%	/
62	Cc1onc(-c2ccccc2Cl)c1C(=O)Nc1cccc2cccnc12	7%	-0.8	0.0	-6	?	-1.0%
63	CCN(C(=S)Nc1ccc(OC(F)F)cc1)C1CCCCC1	-5%[15.4 µM]	-3.4	-1.1	10	5%	0.7%
64	CC(=O)c1ccc(OCC(O)CN2CCN(c3ccc(F)cc3)CC2)cc1 (configuration not stated)	-13%	2.2	-0.2	-2	-4%	/
65	CCS(=O)(=O)N1CCc2cc(C(=O)NCc3ccc(C)cc3)ccc21	/	/	-1.0	-11	/	-7.4%
